Vaccinia mCherry = inhibitors of vaccinia virus infection (mCherry reporter signal); Vaccinia virus mCherry reporter infection, fluorescence; about a quarter of the inactives have no number; Potency, µM (series often up to 36.5 µM), without a hit: at the top dose activity change, negative = inhibition, usual class: inhibitors; hit rate 0.63% among 310,000; AID 720579; active = well fitted inhibition curve with a large enough effect; inconclusive = small, poorly fitted or top-dose-only effect; inactive = no such curve, though single readings can be large or run the other way; tested in A549 cells; also: nearly all actives have a fitted effect of over 35% in size; inactives centre near -10
Vaccinia Venus = vaccinia inhibition (Venus reporter); Vaccinia virus Venus reporter expression, fluorescence; Potency, µM (series often up to 36.5 µM), for the others: at the highest dose activity change, negative = inhibition, usual class: inhibitors; hit rate 0.46% among 330,000; AID 720580; active means well fitted inhibition curve with a large enough effect; inconclusive means small, poorly fitted or top-dose-only effect; inactive means no such curve, though single readings can be large or run the other way; tested in A549 cells; also: nearly all actives have a fitted effect of over 30% in size; inactives centre near -10
* = called active by the depositor; i = inactive; ? = inconclusive; . = not tested or not shown; & = joins results of further samples; [ ] = dose if it differs, or a comment. % is scaled to controls: 0 for no effect and ±100 for the full control effect; potency is read from the fitted curve at half-maximal effect. Rows were taken by chance. Share with any hit: about 0.82%.

Each structure is followed by: Vaccinia mCherry | Vaccinia Venus
> CCOC(=O)C1CCN(S(=O)(=O)c2ccc3c(c2)N(C(C)=O)CCO3)CC1
  -25% | -8%
> CC(NS(=O)(=O)c1ccc(CCC(=O)N2CCN(C)CC2)cc1)c1ccccc1 (stereo not given)
  -13% | -7%
> COc1ccc(S(=O)(=O)Nc2cc(Cl)ccc2OC)cc1
  ? | -28%
> Cc1ccc(C(=O)Nc2ccccc2C(=O)O)cc1S(=O)(=O)N1CCCCCC1
  -10% | -12%
> COc1cc(C(=O)NCC(c2ccco2)S(=O)(=O)c2ccccc2)cc(OC)c1OC (stereo not given)
  -1% | -4%
> C/C(=N\NC(=O)c1c(Cl)cnn1C)c1cccc(NC(=O)C(C)C)c1
  -18% | -16%
> CN(C)C(=O)CSc1ncnc2scc(-c3ccccc3)c12
  -7% | -6%
> CCN(C(=O)COC(=O)c1ccccc1Nc1cccc(C)c1C)C1CCS(=O)(=O)C1 (stereo not given)
  -23% | -16%
> CCCN(CC1CC1)c1nc(N)c2c(N)nc(OC)cc2c1C#N
  11µM* | ?
> CCc1ccc(CNC(=O)c2cnc3sc(N(CC)CC)nn3c2=O)cc1
  i | -10%
> Cn1[nH]cc(C=NC(N)=O)c1=O
  -8% | -9%
> CCOc1ccc(OC(=O)c2sc3ncn(Cc4cccc(F)c4)c(=O)c3c2C)cc1
  -2% | -13%
> COc1ccc(-c2noc(-c3ccc(N4CCCC4)c([N+](=O)[O-])c3)n2)cc1OC
  -1% | -2%
> Cc1ccccc1OC(C)C(=O)N1CCC(Cc2ccccc2)CC1 (stereo not given)
  -4% | -11%
> Cn1c2c(c(=O)n(C)c1=O)CN(Cc1ccccc1)CN2
  8% | 1%
> CCOc1ccc(Nc2nc3ccccc3n2C)cc1
  i | -27%
> O=C(Nc1ccc2nc([C@@H]3O[C@H](CO)[C@@H](O)[C@H](O)[C@H]3O)[nH]c2c1)NC(c1ccccc1)c1ccccc1
  9% | 2%
> Cc1ccc(C(=O)N2CCCCC2C(=O)O)cc1S(=O)(=O)N1CCCCC1 (stereo not given)
  -19% | -6%
> Cc1cc(C)c(NC(=O)Cn2c(=O)n(Cc3ccccc3)c(=O)c3c(C)c(C(=O)N(C)C)sc32)c(C)c1
  -18% | -11%
> CCCCCCOC(=O)Cc1c(C)nc(N)[nH]c1=O
  -22% | -15%
> O=S(=O)(NCCCO)c1ccc2c(c1)Cc1cc(S(=O)(=O)NCCCO)ccc1-2
  . | -13%
> O=C(O)CCC(NS(=O)(=O)c1ccc(N2CCCC2=O)cc1)C(=O)O (stereo not given)
  i | -9%
> COc1ccc(-c2noc(CCCC(=O)N3CCOCC3)n2)cc1
  i | -8%
> COc1ccc(/C=N/NC(=O)c2nc(-c3ccccc3)n(-c3ccccc3)n2)cc1
  0% | 17%
> Cc1ccc2[nH]c(=O)c(CN(CCCN(C)C)C(=S)NCCc3ccccc3)cc2c1
  ? | -25%
> COc1ccc(CNC(=O)COC(=O)CC2CC3CCC2C3)cc1OC (stereo not given)
  -13% | -5%
> O=C(NCCc1ccccc1)C1CCN(C(=O)Nc2ccccc2)CC1
  -6% | 8%
> CCC1=Nc2cc(C(=O)NCCN3CCOCC3)ccc2Sc2ccccc21
  -7% | -20%
> Cc1ccc(Nc2nc3ccccc3c(=O)s2)cc1C
  -8% | -16%
> CCOc1ccc(NC(=O)C2CCCN(S(=O)(=O)c3cccc4nsnc34)C2)cc1 (stereo not given)
  -3% | -16%

4 of the compounds above, with each value named:
COc1cc(C(=O)NCC(c2ccco2)S(=O)(=O)c2ccccc2)cc(OC)c1OC (stereo not given)
  Vaccinia mCherry = -1% | Vaccinia Venus = -4%

C/C(=N\NC(=O)c1c(Cl)cnn1C)c1cccc(NC(=O)C(C)C)c1
  Vaccinia mCherry = -18% | Vaccinia Venus = -16%

CN(C)C(=O)CSc1ncnc2scc(-c3ccccc3)c12
  Vaccinia mCherry = -7% | Vaccinia Venus = -6%

CCN(C(=O)COC(=O)c1ccccc1Nc1cccc(C)c1C)C1CCS(=O)(=O)C1 (stereo not given)
  Vaccinia mCherry = -23% | Vaccinia Venus = -16%

More structures follow:
Each structure is followed by: Vaccinia mCherry | Vaccinia Venus
> CCCS(=O)(=O)N1CCC(n2c(C(F)(F)F)nc3cccnc32)CC1
  -5% | 3%
> O=C(CCc1cn(Cc2ccccc2Cl)c2ccccc12)NC1CCCCC1
  -14% | -11%
> COc1cccc(NC(=O)c2ccc(NC(=O)C(C)(C)C)cc2)c1
  16% | -22%
> COc1ccc(NC(=O)c2cc(S(=O)(=O)N3CCc4ccccc43)cn2C)cc1
  -2% | -23%
> CCC(=O)Oc1ccc(C(=O)Nc2ccccc2C(=O)NCC(C)C)cc1
  0% | -4%
> O=C(Nc1ccccc1)c1cc(C2CCCCN2C(=O)c2cccs2)on1 (stereo not given)
  i | -10%
> O=C1C[C@@H]2CCN3C(=O)CCC[C@@H]([C@H]23)[C@@H]1Cc1ccccc1
  -29% | -7%
> CCCNC(=O)C1(C)CCN(Cc2noc(-c3ccccc3OC)n2)C1 (stereo not given)
  34%[activator] | 5%
> COc1ccc(-c2ccc(CCC(=O)O)o2)cc1
  -12% | -17%
> CC(=O)NC(C)(c1ccccc1)c1nc(-c2ccc(N(C)C)cc2)cs1 (stereo not given)
  ? | -20%
> CC(=O)c1ccc(NS(=O)(=O)c2ccc3[nH]c4c(c3c2)CCCC4)cc1
  -24% | -18%
> Cc1ccc(NC(=S)N(C)Cc2cn(C)c3ccccc23)cc1
  -1% | -3%
> CCC(CC)C(=O)Nc1nc2c(s1)CC(C)CC2 (stereo not given)
  i | 2%
> COc1ccc(C(=O)C2CCCN(C(=O)CCC3=NNC(=O)CC3)C2)c(C)c1 (stereo not given)
  i | -5%
> CCS(=O)(=O)c1nc(S(=O)(=O)c2ccc(Cl)cc2)c(N2CCOCC2)s1
  -22%[7.34 µM] | -12%[7.34 µM]
> CC(=O)CCc1oc2ccc(NC(C)=O)cc2c1-c1ccc(C)o1
  . | -8%
> CCOC(=O)C1=C(C)N(c2ccccc2)C(=O)C1CC(=O)O (stereo not given)
  i | -10%
> CCOC(=O)c1c(N)sc(C(=O)N(C)C)c1C
  . | -4%
> CCOC(=O)c1c(NC(=O)COC(=O)Cn2c(C)nc3ccccc32)sc2c1CCCC2
  i | -10%
> CCOC(=O)C1(CCOC)CCN(Cc2ccc(C3CCCCO3)s2)CC1 (stereo not given)
  -21% | -17%
> CCOc1ncccc1C(=O)N1CCCSC1=Nc1ccccc1OC
  -5% | -4%
> O=C(CSc1nnc(CNc2ccc(F)cc2)n1-c1ccccc1)N1CCOCC1
  . | -11%
> CC(=O)N1CCc2cc(S(=O)(=O)CCC(=O)Nc3cc(C)cc(C)c3)ccc21
  i[7.34 µM] | -19%[7.34 µM]
> CC(C)(C)OC(=O)N1CCC(C(=O)Nc2ccc(C(=O)N3CCCC3)cc2)CC1
  i | -16%
> C=CCn1c(SCC(=O)Nc2ccccc2F)nnc1C(C)NC(=O)c1ccccc1F (stereo not given)
  -14% | -10%
> O=C(Nc1nc2ccc(S(=O)(=O)N3CCCCC3)cc2s1)c1cccnc1
  i | -4%
> Cc1cccn2c(CN3CCSCC3)c(C(=O)N3CCOCC3)nc12
  i | -6%
> CCCn1c(N)c(CC)c(=O)[nH]c1=O
  i | 2%
> COc1cccc(CN2CCSCC2)c1
  i | -12%
> N#Cc1ccc(NC(=O)CCNC(=O)c2ccco2)cc1Cl
  15% | -13%

Continued, overlapping the part above by 2 compounds.
Each structure is followed by: Vaccinia mCherry | Vaccinia Venus
> COc1cccc(CN2CCSCC2)c1
  i | -12%
> N#Cc1ccc(NC(=O)CCNC(=O)c2ccco2)cc1Cl
  15% | -13%
> C=CCn1c(C(C)NC(=O)c2cccc(C)c2)n[nH]c1=S (stereo not given)
  -1% | -2%
> COC(=O)C[C@H]1C[C@H]2c3cc(NC(=O)Nc4ccc(C(F)(F)F)cc4)ccc3O[C@H]2[C@@H](CO)O1
  -2% | -24%
> COc1ccccc1NS(=O)(=O)c1cc(C(=O)N2CCCCCCC2)ccc1C
  -18% | -21%
> Cc1nn(-c2ccccc2)c2nc(=O)n(-c3ccccc3)cc12
  -13% | -8%
> O=c1[nH]c2ccccc2n1C1CCN(C(c2nnnn2C2CCCC2)C2CC2)CC1 (stereo not given)
  i | -4%
> CCC(C(=O)N1C[C@H]2C[C@@H](C1)c1cccc(=O)n1C2)c1ccccc1 (stereo not given in full)
  5% | 0%
> N=C(N)SCP(=O)(c1ccccc1)c1ccccc1
  i | -19%
> COc1cccc(CC(=O)Nc2ccc(N3CCOCC3)c(S(=O)(=O)Nc3ccccc3OC)c2)c1
  4% | -10%
> CCOc1cccc(C2C=C(c3ccc4c(c3)OCO4)NC(c3ccc(Cl)cc3)N2)c1O (stereo not given)
  -9% | -21%
> CCC(C)c1ccccc1N1CC(C(=O)Nc2cccc(S(=O)(=O)N3CCOCC3)c2)CC1=O (stereo not given)
  i | -6%
> CC(C)CC(NS(=O)(=O)c1ccc2[nH]c(=O)c(=O)[nH]c2c1)C(=O)O (stereo not given)
  i | -3%
> CC(C#N)(NC(=O)CN1CCN(S(=O)(=O)c2ccccc2C#N)CC1)C1CC1 (stereo not given)
  -8% | -21%
> Cc1cccc(NC(=O)Cc2cccs2)n1
  -13% | -6%
> Cc1ccc(NC(=O)N2CC2)cc1NC(=O)N1CC1
  -17% | -1%
> CC1CC2C3CCC4=CC(=O)C=CC4(C)[C@@]3(Cl)C(O)CC2(C)C1(O)C(=O)CO (stereo not given in full)
  -1% | -10%
> CC(C)NC(=O)/C(=C/c1cn(-c2ccccc2)nc1-c1cccc([N+](=O)[O-])c1)NC(=O)c1ccccc1
  -14% | -2%
> COc1ccc(-n2nc(C(=O)NCC(=O)NCCCN3CCOCC3)c3ccccc3c2=O)c(OC)c1
  -14% | 4%
> CN1CC(=O)N(CC(=O)Nc2cccc(C#N)c2)c2ccccc2C1=O
  5% | -1%
> C=CCOc1ccc(CNC(C)(C)CO)cc1OC
  . | -3%
> Cc1nn(C(=O)c2cccnc2)c(C)c1Sc1ccccc1
  -19% | -10%
> O=C(Cc1ccccc1)Nc1ccc(Cl)cn1
  i | -14%
> COC(=O)c1ccccc1NC(=O)C1CCCN(c2nnc(-n3cccc3)s2)C1 (stereo not given)
  9% | -1%
> CC(/C=N/n1c(-c2cc(C)[nH]n2)n[nH]c1=S)=C\c1ccco1
  -9% | -14%
> CCN(CC)C(=O)c1[nH]cnc1C(=O)N[C@@H](CC(C)C)C(=O)OCc1ccccc1
  i | -20%
> Cc1ccc(C)c(OCC(=O)Nc2ccccc2C(=O)N2CCN(C)CC2)c1
  -11% | -11%
> CCOc1ccc(/C=C2\SC(=O)N(CCNC(=O)CN3C(=O)NC4(CCCC4)C3=O)C2=O)cc1OC
  -16% | ?
> O=C(NC(c1ccc(F)cc1)c1ccc2ccccc2n1)C1CCN(CCOc2ccc(Cl)cc2)CC1 (stereo not given)
  ? | ?
> Cc1oc(-c2ccccc2)nc1CN1C(=O)C(C)N=C(c2ccccc2F)c2cc(Cl)ccc21 (stereo not given)
  -12% | -22%
> COc1ccccc1Nc1ncc(C(=O)Nc2ccc(OC)c(OC)c2)c2ccccc12
  -23%&-15% | -3%&-12%
> CC(C)OCCCn1c(=O)c2ccccc2n2c(CCC(=O)O)nnc12
  -6% | -8%
> CC(=O)Nc1ccc(S(=O)(=O)Nc2ccc3c(c2)OCCO3)cc1Cl
  -9% | -15%
> Cc1ccc(NC(=O)c2cnn(-c3ccccc3)c2NC(=O)c2ccco2)cc1
  -13% | -9%
> O=C(O)C1CCN(C(=O)CSc2nc3ccccc3s2)CC1
  1% | -3%
> CC[C@H]1CCCCc2ccccc2[C@@H](C(=O)C[C@@H](O)CC(C)=O)OC1=O
  ? | -18%
> N#CC[C@H](Cc1ccccc1)N1CCN(CCc2ccccc2)CCC1=O
  -2%&-15% | -6%&-3%
> CCOc1ccc(N2CC(C(=O)Oc3ccccc3)CC2=O)cc1 (stereo not given)
  -9% | 0%
> O=C(NCCN1CCC(n2c(=O)[nH]c3ccccc32)CC1)c1cccc2c1-c1ccccc1C2=O
  -10% | -11%
> COC(=O)CCC(=O)Nc1ccc(S(=O)(=O)N2CCc3ccccc32)cc1
  i | 6%
> COc1ccc2nc(SCc3cccc(C)c3)nc(C)c2c1
  -20% | -15%
> NC(=O)c1ccc(NC(=O)C2CCN(S(=O)(=O)Cc3ccccc3)CC2)cc1
  0% | 0%
> COc1ccc(Cc2nc3ccc(C(=O)NCCc4ncccc4C)cc3o2)cc1OC
  i | -10%
> COc1cc(C(=O)c2c(C)c(CCC#N)n3ccccc23)cc(OC)c1OC
  -4% | -4%
> O=C(NCc1ccncc1)c1cccc(NS(=O)(=O)c2ccc(F)c(F)c2)c1
  -23% | -5%
> CCn1nc(C)cc1C(=O)N1CCCC(N(C)CCc2ccc(OC)c(OC)c2)C1 (stereo not given)
  -11% | -11%
> Cc1ccc(S(=O)(=O)c2nnn(-c3ccc(F)c(Cl)c3)c2N)cc1
  -9% | -11%
